# KCNQ2 inh – KCNQ2 potassium channel inhibitors, primary screen, cell-based, CHO-K1, FluxOR thallium flux, B-score (AID 2156) | 20 min; hits give low values; only compounds with negative scores are shown here; some inactives read as strong as hits | 310,000 tested, 1.1% active | O88943 | B-score at 10 µM;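 active = fluorescence ratio B-score at most minus 3 library SDs, with starting brightness B-score within 2 library SDs, cut at about -5.5 in these data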
# Target sequence (O88943 whole entry, looked up): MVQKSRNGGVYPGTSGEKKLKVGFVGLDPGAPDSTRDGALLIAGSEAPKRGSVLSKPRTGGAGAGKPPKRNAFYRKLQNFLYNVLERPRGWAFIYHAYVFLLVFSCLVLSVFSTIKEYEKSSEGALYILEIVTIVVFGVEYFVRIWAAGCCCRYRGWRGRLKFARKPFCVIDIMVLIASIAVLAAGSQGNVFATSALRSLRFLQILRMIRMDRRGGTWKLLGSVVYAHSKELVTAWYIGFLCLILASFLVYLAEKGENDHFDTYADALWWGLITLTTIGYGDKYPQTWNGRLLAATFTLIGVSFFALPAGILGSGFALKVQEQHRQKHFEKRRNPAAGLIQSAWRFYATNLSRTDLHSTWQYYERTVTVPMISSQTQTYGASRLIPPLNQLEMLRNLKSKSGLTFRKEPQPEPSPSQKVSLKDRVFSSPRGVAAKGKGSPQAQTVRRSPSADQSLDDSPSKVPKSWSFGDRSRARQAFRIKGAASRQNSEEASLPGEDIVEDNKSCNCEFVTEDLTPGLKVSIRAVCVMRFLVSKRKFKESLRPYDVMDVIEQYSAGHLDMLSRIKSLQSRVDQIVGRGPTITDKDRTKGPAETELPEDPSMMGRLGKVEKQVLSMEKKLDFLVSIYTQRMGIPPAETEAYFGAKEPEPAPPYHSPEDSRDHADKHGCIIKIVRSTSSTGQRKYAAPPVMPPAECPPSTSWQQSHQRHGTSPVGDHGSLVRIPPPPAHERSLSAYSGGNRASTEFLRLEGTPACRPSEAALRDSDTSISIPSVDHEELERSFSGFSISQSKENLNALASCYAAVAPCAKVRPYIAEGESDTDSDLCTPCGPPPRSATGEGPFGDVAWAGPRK
# KCNQ2 inh baseline – recorded beside KCNQ2 inh, whose call it bears; B-score; measured here: initial fluorescence intensity artifact check;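 brightness before thallium and not channel activity; 0 = typical well and far values either way flag optical interference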
# Starred values were filed as active, the others as inactive; i = inactive. The list is partial; rates above refer to the full screens.
# Value order – KCNQ2 inh	KCNQ2 inh baseline
COc1ccc(-c2oc3ccc(-c4cc(OC)c(OC)c(OC)c4)cc3c2-c2ccc(OC)cc2)cc1
 : i	-0.89
COCCNC(=S)NCCc1ccc(Cl)cc1Cl
 : i	-1.46
Cc1c([N+](=O)[O-])cc(S(=O)(=O)Nc2ccncc2)cc1[N+](=O)[O-]
 : i	3.8
CCOC(=O)C1CCCN(C(=O)c2sc3nc(-c4ccccc4)cn3c2C)C1 (stereo not given)
 : i	0.11
O=C(NC(=S)Nc1ccccc1N1CCCCC1)c1ccccc1
 : i	-0.01
C/C(=N\NC(=O)c1ccco1)c1cc(Cl)sc1Cl
 : i	-2.01
O=C(O)c1nn(-c2ccccc2)nc1-c1nn(-c2ccccc2)nc1C(=O)O
 : i	0.08
COc1ccc(/C=N/n2c(N)c(S(=O)(=O)c3cccs3)c3nc4ccccc4nc32)cc1OC
 : i	-3.14
O=C1CN(C(=O)CSc2nc3ccccc3c(=O)n2CCCN2CCOCC2)c2ccccc2N1
 : i	-1.29
N#Cc1ccc(S(=O)(=O)NC2CC2)cc1
 : i	0.02
O=C(CCSc1ccccc1)N1CCN(c2ccccc2F)CC1
 : i	-1.08
O=C(CCCOc1ccc(Br)cc1)NCCc1ccc(OC(F)F)cc1
 : i	0.56
COc1ccc(-c2oc3cccnc3c2C#CC2(O)CCCCC2)cc1
 : i	0.96
O=C(Nc1nc(-c2ccc3c(c2)Cc2ccccc2-3)cs1)c1ccccc1
 : i	0.35
Cc1cnc(CN(C)C(=O)c2ccc3oc(Cc4ccccc4)nc3c2)[nH]1
 : i	1.34
COc1ccc(CCNC(=O)c2noc3c2CCCC3)cc1OC
 : i	-0.03
CN(C(=O)c1ccccc1C(=O)OCC(=O)NC(=O)NC(C)(C)C)C1CCCCC1
 : i	-0.47
COc1ccc(N(CC(=O)Nc2cccnc2)S(=O)(=O)c2ccccc2)cc1Cl
 : i	0.54
CC(=O)NC(c1ccc(C)cc1)c1cc(Cl)c2cccnc2c1O (stereo not given)
 : i	-0.12
CCCCC1=CC2=C(c3ccco3)C(=O)C(C)(OC(=O)c3ccc(OC)cc3)C(=O)C2=CN1c1ccc(OC)cc1 (stereo not given)
 : i	-0.49
COc1ccccc1/C=N/NC(=S)Nc1cccnc1
 : i	0.03
O=C(Nc1c(C(=O)N2CCCCC2)cnn1-c1ccccc1)c1ccccc1F
 : i	0.22
COc1cc(-c2nnc(Sc3ccc(C(F)(F)F)cc3[N+](=O)[O-])o2)cc(OC)c1OC
 : i	1.07
CN(C)S(=O)(=O)Oc1ccsc1C(=O)Nc1ccc(Br)cc1
 : i	-0.02
O=C(O)CCc1ccc(-c2cccs2)n1CC(=O)Nc1ccccc1C(F)(F)F
 : i	-0.81
O=[N+]([O-])c1ccc(N2CCN(S(=O)(=O)c3ccc(Cl)cc3)CC2)cc1NCC1CCCO1 (stereo not given)
 : i	0.69
Cc1ccc(/C=N/NC(=O)c2ccc3ccccc3c2)s1
 : i	-2.62
O=C(COc1ccccc1)Nc1c(Cl)ccc2nsnc12
 : i	-0.18
Cc1cc(N2CCN(c3ccccc3)CC2)n2nnnc2n1
 : i	0.13
CC(=O)c1c(C)n(-c2ccccc2Br)c2ccc(O)cc12
 : i	-0.62
NC(=S)N/N=C1\CC(n2nnnc2-c2ccccc2Cl)C2COC1O2 (stereo not given)
 : i	0.24
CCOC(=O)CN1NC2(CCCCCCC2)NC1=S
 : i	1.14
COc1ccc(NS(=O)(=O)c2cccc(C(=O)NNC(=O)CNC(=O)c3ccco3)c2)cc1
 : i	-0.9
O=C(/C=C/c1cccc([N+](=O)[O-])c1)NCc1cccnc1
 : i	-0.07
COc1ccc(/C=N/NC(=O)c2sc(C)nc2C)cc1
 : i	0.92
O=C(C1CCCN(S(=O)(=O)c2cccs2)C1)N1CCN(C2CCCCC2)CC1 (stereo not given)
 : i	-0.37
Cc1cc(C(=O)O)ccc1N/C=C1\CCCC(C)C1=O (stereo not given)
 : i	0.01
CC(=O)c1cccc(NC(=O)N2CCN(S(C)(=O)=O)CC2)c1
 : i	0.01
C/C(=N\NC(=O)c1cc(-c2cccnc2)nc2ccccc12)c1ccc(O)cc1O
 : i	0.06
COC(=O)c1cnn(-c2ccccc2)c1-n1cccc1C=O
 : i	2.28
CCOc1cc2[nH]c(=O)n(CCCCCC(=O)NCc3ccco3)c(=O)c2cc1OCC
 : i	1.94
C=C(C)c1cccc(C(C)(C)NC(=O)NCCCn2ccnc2)c1
 : i	-0.26
c1ccc(-c2cc3ccccc3nc2N2CCCC2)cc1
 : i	-0.08
CCOc1ccc(OCCNC2CCCC2)cc1
 : i	-1.49
Cc1nonc1C1CCCN1C(=O)c1cc(COc2ccc(F)cc2Cl)on1 (stereo not given)
 : i	-1.05
CC(=O)Nc1ccc(S(=O)(=O)N(C#N)c2nc(N(C)C)nc(N(C)C)n2)cc1
 : i	1.11
CN1CCN(CC/C=C2/c3ccccc3Sc3ccc(S(=O)(=O)N(C)C)cc32)CC1
 : i	-0.53
NC(=O)CC(NC(=O)Cc1ccc(Br)cc1)c1ccc(N2CCC(Br)CC2)c([N+](=O)[O-])c1 (stereo not given)
 : i	-0.68
NS(=O)(=O)c1ccc(NC(=O)CN2CCN(Cc3ccccc3)CC2)cc1
 : i	0.8
CC1CCN(C(=O)c2cc3nc(C4CC4)cc(C(F)(F)F)n3n2)CC1
 : i	0.81
O=C(CSc1ccc(-c2ccccc2)nn1)c1cccs1
 : i	-0.63
COC(=O)c1ccsc1NC(=O)c1cccc(OC)c1
 : i	-0.3
COC(=O)c1ccc(NC(=O)COc2ccc(S(=O)(=O)NC(C)C)cc2)cc1
 : i	1.03
Cc1ccc2[nH]c(=O)c(CN(CCc3ccccc3)Cc3nnnn3CC3CCCO3)cc2c1 (stereo not given)
 : i	-0.05
CCOC(=O)N1CCN(c2ccc(O)cc2)CC1
 : i	-1.57
COc1ccc(C[C@H]2CN3C(=NC[C@@H]3C(C)C)N2CCNC(=O)c2ccc(C)c(Br)c2)cc1
 : i	-1.67
CN1C(=O)C(CC(=O)Nc2ccccc2F)N(NC(=O)c2ccc(Br)cc2)C1=S (stereo not given)
 : i	0.52
COC(=O)C1=C(C)NC(=O)NC1/C=C/c1ccccc1 (stereo not given)
 : i	-0.59
COc1ccccc1C(=O)NCCC(=O)NCCCSc1ccccc1
 : i	2.06
CCN1CCN(c2ccc(S(=O)(=O)N3CCOCC3)cc2NC(=O)c2ccc(C)c(C)c2)CC1
 : i	0.01

# (cont.)
# Value order – KCNQ2 inh	KCNQ2 inh baseline
N#C/C(=C1/CCCN1)c1ccccn1
 : i	0.67
O=C1C=C(O)CC(c2cccs2)C1 (stereo not given)
 : i	-2.09
Cc1ccc(C(=O)NCC(=O)N2CCCC(C(F)(F)F)C2)s1 (stereo not given)
 : i	-1.09
Cc1ccc(S(=O)(=O)N(CC(=O)NN=C2CCN(C)CC2)c2ccc(F)cc2)cc1
 : i	-0.09
Cc1nc2ccccc2n1CC(=O)NC1CCCC1
 : i	-1.28
O=C(/C=C/c1ccnc2ccccc12)c1cccs1
 : i	1.17
COc1cc(C(=O)Oc2ccccc2/C=N/NC(=O)c2ccc(Cl)cc2Cl)cc(OC)c1OC
 : i	1.35
O=C(Nc1ccc(F)c(F)c1)C1CCCN(S(=O)(=O)c2cnc[nH]2)C1 (stereo not given)
 : i	-1.11
Cc1ccccc1/C=C1\C(=O)Nc2ccc(F)cc21
 : i	2.79
CC(=O)c1ccc(N2C(=NC(=O)CCC3CCCC3)SC3CS(=O)(=O)CC32)cc1 (stereo not given)
 : i	0.69
CCn1c(SCC(=O)NCCc2ccccc2)nc2sc3c(c2c1=O)CCN(C)C3
 : i	0.81
N#CC(C(=O)c1ccc(S(=O)(=O)N2CCCCCC2)cc1)c1nc2ccccc2[nH]1 (stereo not given)
 : i	0.09
COc1ccc(-c2csc(NC(=O)c3cc(C)oc3C)n2)cc1OC
 : i	-3.13
O=C(NCCc1ccccc1Cl)C1CCC(=O)N(Cc2cccc(C(F)(F)F)c2)C1 (stereo not given)
 : i	0.72
CCOc1ccc(N2C(=O)/C(=C/c3ccccc3OCC(=O)OC)N(CC(=O)OC)C2=S)cc1
 : i	0.49
CCCn1c(SCC(=O)NC2CC2)nnc1-c1ccccn1
 : i	1.32
Cc1cc(C)n(-c2nc3ccccc3c(=O)n2OCC(C)C)n1
 : i	-0.6
O=C(O)CCc1ccc(-c2ccccc2)n1Cc1ccco1
 : i	1.35
COc1ccc(Cn2c(N)c(S(=O)(=O)c3cccs3)c3nc4ccccc4nc32)cc1
 : i	0.91
CCNC(=S)NNC(=O)c1cc(-c2ccc(OCC)cc2)nc2ccccc12
 : i	-0.07
N#C/C(=C\c1cccs1)C(=O)NCC1CCCO1 (stereo not given)
 : i	3.71
COC(=O)c1sccc1NC(=O)Nc1ccccc1F
 : i	-0.48
CC(=O)N1CCC(C(=O)Nc2ccccc2)(N(Cc2ccccc2)C(=O)c2cccnc2)CC1
 : i	-1.67
CCOCCCNc1nc(C)nc2c1nnn2Cc1c(F)cccc1Cl
 : i	-1.58
N#Cc1cc2cc3c(cc2nc1N1CCOCC1)OCO3
 : i	-2.58
O=C(COC(=O)CNC(=O)c1ccccc1)NCCc1ccccc1
 : i	2.14
Cc1nc2c3ccccc3nc(NNC(=O)CCC(=O)NC3CCCC3)n2n1
 : i	0.67
Cc1ccc2cc(CN(CCN(C)C)C(=O)Nc3ccc(Cl)cc3)c(=O)[nH]c2c1
 : i	-0.2
CC(C)CN(C(=O)COC(=O)CSc1ccc([N+](=O)[O-])cc1)C1CCS(=O)(=O)C1 (stereo not given)
 : i	1.69
CC(=O)c1ccc(OCC(=O)Nc2ccc3c(c2)CCC3)cc1
 : i	0.87

# Some of these compounds in order of SMILES length, low to high.
# Value order – KCNQ2 inh	KCNQ2 inh baseline
N#C/C(=C1/CCCN1)c1ccccn1
 : i	0.67
Cc1ccc(C(=O)NCC(=O)N2CCCC(C(F)(F)F)C2)s1 (stereo not given)
 : i	-1.09
CC(C)CN(C(=O)COC(=O)CSc1ccc([N+](=O)[O-])cc1)C1CCS(=O)(=O)C1 (stereo not given)
 : i	1.69

# Next part
# Value order – KCNQ2 inh	KCNQ2 inh baseline
N#C/C(=C/c1ccc(Sc2nc3ccccc3[nH]2)o1)c1cccc(F)c1
 : i	0.92
CN(CCOc1ccccc1)C(=O)c1cc(S(=O)(=O)N2CCOCC2)ccc1Cl
 : i	-0.56
CCOC(=O)CC1C(=O)NCCN1S(=O)(=O)c1ccccc1Cl (stereo not given)
 : i	-2.1
Cn1c(C2CCCCC2)nc2ccccc21
 : i	0.29
CCCCCN(C(=O)CCC(=O)OCc1cccc(C(F)(F)F)c1)c1c(N)n(CCCC)c(=O)[nH]c1=O
 : i	0.4
COc1ccccc1-n1cnnc1SCC(=O)Nc1cc(C(C)(C)C)nn1-c1ccccc1
 : i	1.34
C=C(C)CSCc1nc2ccccc2[nH]1
 : i	-0.31
CCSc1nnc(NC(=O)CSc2nnc(-c3c[nH]c4ccccc34)n2C)s1
 : i	-1.31
C/C(=N\OCc1ccccc1)c1c(O)cc(C(C)C)n(-c2ccccc2)c1=O
 : i	-0.76
COCCNC(=S)NN=C1CCCCC1
 : i	-0.24
O=C1Nc2ccc(S(=O)(=O)N3CCCC3)c3cccc1c23
 : i	1.13
O=C(NC(NCc1cccnc1)C(Cl)(Cl)Cl)c1cccc2ccccc12 (stereo not given)
 : -6.28*	-1.47*
O=C(CSc1nnc(-c2ccco2)n1Cc1ccco1)Nc1ccccc1
 : i	0.45
O=C(NCc1ccco1)c1cc2c(s1)CCCCC2
 : i	2.25
O=C(COC(=O)c1ccccn1)Nc1nc(-c2cccc([N+](=O)[O-])c2)cs1
 : i	-1.43
N#CC1CCN(c2ncccc2[N+](=O)[O-])CC1
 : i	0.49
COc1ccc(OC)c(/C=N/Nc2nc(C)cc(=O)[nH]2)c1
 : i	1.38
CCCC(c1nnnn1CS(=O)(=O)c1ccc(C)cc1)N1CCN(c2ccc(F)cc2)CC1 (stereo not given)
 : i	-1.6
COc1ccc(OCc2cc(C(=O)N3CCCC(CO)C3)no2)c2ccccc12 (stereo not given)
 : i	0.69
Cc1nn(-c2ccccc2)c(C)c1/C=C/C(=O)OCC(=O)N(C)C1CCS(=O)(=O)C1 (stereo not given)
 : i	1.73
Cc1ncc(CCl)c2c1OC(C)(C)OC2
 : i	-0.03
Cc1cc2c(OCC(O)CNCc3ccco3)cccc2[nH]1 (stereo not given)
 : i	-0.23
CN=C(C)/C(C(=O)OC)=C(/O)c1ccc(Cl)cc1Cl
 : i	-1.01
Cc1cccc(C)c1-n1c(C)cc(/C=C2\C(=O)NN(c3ccccc3)C2=O)c1C
 : i	-0.57
C/C(=N\OCc1ccc(C#N)cc1)c1ccc(S(=O)(=O)N(C)C)cc1
 : i	-0.34
COc1cccc(NC(=O)CSc2nnc(-c3ccoc3C)n2C)c1
 : i	2.56
N#CCSCC(=O)Nc1ccc(F)cc1
 : i	0.6
S=C(NCCC1=CCCCC1)Nc1ccccc1
 : i	-1.72
CC1(C)CC(=O)C2=C(C1)OC(N)=C(C#N)C2c1ccoc1 (stereo not given)
 : i	-0.47
CCOC(=O)CN1C(=O)C(CC)Oc2ccccc21 (stereo not given)
 : i	0.8
CCC(=O)Nc1cccc(C2=NN(c3ccccc3)C(c3ccc(OC)cc3)C2)c1 (stereo not given)
 : i	1.97
CCOC(=O)N1CCC(N2CCN(S(=O)(=O)c3ccc(OC)cc3)CC2)CC1
 : i	0.46

# Single records (already shown):
# CC1CCN(C(=O)c2cc3nc(C4CC4)cc(C(F)(F)F)n3n2)CC1 is entered as KCNQ2 inh = i; KCNQ2 inh baseline = 0.81
# O=C(/C=C/c1cccc([N+](=O)[O-])c1)NCc1cccnc1 is entered as KCNQ2 inh = i; KCNQ2 inh baseline = -0.07
# O=C1Nc2ccc(S(=O)(=O)N3CCCC3)c3cccc1c23 is entered as KCNQ2 inh = i; KCNQ2 inh baseline = 1.13

# Screens deposited in PubChem by Johns Hopkins Ion Channel Center.
